High-throughput results: PubChem, several laboratories
Env fusion inh: blocks HIV Env-driven cell-cell fusion | HeLa-JRFL Env/CEM21 cell fusion, luciferase | inhibition, % at 12.3 µM | 1.1% of 360,000 active | AID 651610;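 active = mean replicate inhibition score of at least 50 and every replicate individually at or above 50; inconclusive = only one of the two criteria met; inactive = mean below 50 and not all replicates reaching 50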;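 also: 0% = plate neutral controls and 100% = maraviroc near 300 nM; one replicate is shown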
Rce1 inh: blocks yeast Ras-converting enzyme; 0.27% of 290,000 active; calls only; yeast membranes, quenched prenylated peptide cleavage fluorescence;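 active = fall in fluorescence gain of 50% or more versus controls, with final raw signal at or below 3038400; inconclusive = same 50% fall but final raw signal above 3038400; inactive = fall in fluorescence gain under 50%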;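 also: plate controls were neutral control wells for no effect and wells lacking membranes for full effect; tested at 10 µM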
Target sequence (Q03530 whole entry, looked up): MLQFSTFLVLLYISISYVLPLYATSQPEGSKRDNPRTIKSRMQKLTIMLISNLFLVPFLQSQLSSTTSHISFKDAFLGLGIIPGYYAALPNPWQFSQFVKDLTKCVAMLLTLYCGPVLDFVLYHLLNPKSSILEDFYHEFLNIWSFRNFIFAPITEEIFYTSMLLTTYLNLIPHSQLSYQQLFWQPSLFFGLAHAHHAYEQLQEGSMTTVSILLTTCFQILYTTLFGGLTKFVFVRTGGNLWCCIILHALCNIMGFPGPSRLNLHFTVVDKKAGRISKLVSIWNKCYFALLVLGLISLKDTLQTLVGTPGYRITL
UUG fidelity: yeast start codon fidelity modulation. 0.13% of 350,000 active. activity score, % at 18.7 µM. S. cerevisiae UUG-firefly luciferase reporter, luminescence/redox ratio;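 active = replicate mean at a twofold rise or more, about +100% in these data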;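 also: firefly luciferase made from a UUG start codon reports start codon fidelity; reporter light over untreated wells divided by growth signal over untreated wells; some hits fall short of that in this replicate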
MT1-MMP act inh: MT1-MMP (human) activation inhibition. P50281. HT1080 RFP-PRO-GFP cells, GFP/RFP ratio fluorescence, overnight; percent of plate control window, DMSO zero. GFP/RFP ratio change, % at 20 µM. 0.061% of 360,000 active. AID 651647;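 active = GFP/RFP ratio change of at least 30% with cell ATP level not reduced by more than half and red fluorescence within 50% of control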; also: strong numbers were not always called active
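Material – HT1080 RFP-PRO-GFP cells · Control set – DMSO wells and RFP-L50D-GFP cells · Incubation – overnight cell settling, then overnight compound exposure, 37 °C, 5% CO2 · Compound dosing – single-point 20 µM compound, 1% DMSO · Read-out – GFP/RFP fluorescence ratio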
CSC inhib: blocks cancer stem cells; cancer stem cell-like cells viability, luminescence; inhibition, % at 7.5 µM; 1.1% of 300,000 active;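 active = mean at 75% or more and at least half the replicates too; inconclusive = mean and replicates disagree; tested in HMLE shEcad cells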;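 also: 0% = median of negative and 100% = median of positive control wells; the first replicate is given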
MT1-MMP act inh RFP: further read-out of MT1-MMP act inh, marked with its call; RFP signal change, %; measured here: RFP expression control read;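 0 = vehicle wells; hits needed this value within 50% of zero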
An asterisk follows results filed as active; i = inactive; ? = inconclusive; · = not tested or not shown; [ ] = dose if it differs, or a comment.

| nr | SMILES | Env fusion inh | Rce1 inh | UUG fidelity | MT1-MMP act inh | MT1-MMP act inh RFP | CSC inhib |
| --- | --- | --- | --- | --- | --- | --- | --- |
| 1 | CCOC(=O)c1ccccc1NC(=O)COC(=O)CSc1ccccc1 | · | i | · | 2 | 4 | · |
| 2 | CC1=C(C(=O)OC(C)C)C(c2ccco2)NC(=O)N1 (stereo not drawn) | · | i | · | 1 | 5 | · |
| 3 | COC(=O)c1c(NC(=O)COC(=O)C2CCC2)sc(C)c1C | · | i | · | 6 | 2 | · |
| 4 | COCCN(C(=O)COC(=O)c1ccc2c(c1)OCCO2)c1c(N)n(Cc2ccccc2)c(=O)[nH]c1=O | · | i | · | 5 | 2 | · |
| 5 | O=C(O)COc1ccc(NC(=O)c2cccs2)cc1 | · | i | · | 0 | -2 | · |
| 6 | O=C1NC(Cc2ccc(O)cc2)c2nc3ccc(Br)cc3c(=O)n2-c2ccc(Cl)cc21 (stereo not drawn) | -2 | · | · | · | · | 12 |
| 7 | CCOc1ncccc1C(=O)OCC(=O)c1ccc(Br)s1 | 2 | · | · | · | · | 0 |
| 8 | CCOC(=O)c1ccccc1NC(=O)Cn1cnc2c(cnn2-c2ccc(OC)cc2)c1=O | -56 | · | · | · | · | 3 |
| 9 | O=C(Nc1ccc(Nc2ccccc2)cc1)c1ccccc1 | -40 | · | · | · | · | ? |
| 10 | O=c1c2ccccc2nnn1CSc1nc2cc(Cl)ccc2c(=O)n1Cc1ccco1 | 2 | · | · | · | · | -12 |
| 11 | CN(C)C(=O)OCc1c(-c2ccccc2)ncc2ccccc12 | -16 | · | · | · | · | -12 |
| 12 | O=C1NC(Cc2ccccc2)c2nc3ccccc3c(=O)n2-c2ccc(Cl)cc21 (stereo not drawn) | -2 | · | · | · | · | -13 |
| 13 | COc1ccc(C(=O)NNC(=S)NC(=O)c2ccc(Cl)cc2)cc1 | 21 | · | · | · | · | 32 |
| 14 | COc1ccc(CNC(=O)CN2C(=O)NC3(CCCc4sccc43)C2=O)cc1OC (stereo not drawn) | · | · | · | 2 | -3 | 0 |
| 15 | CN(C1CCCCC1)S(=O)(=O)c1ccc(SCC(=O)NC(C)(C)C)nc1 | · | · | · | 0 | -7 | 10 |
| 16 | COc1ccc(NC(=O)CN(Cc2ccco2)Cc2ccco2)cc1S(=O)(=O)N1CCCCC1 | · | · | · | 1 | -7 | -3 |
| 17 | CCC(C)c1ccc(S(=O)(=O)N2CCN(CC(O)CN3CCOCC3)CC2)cc1 (stereo not drawn) | · | · | · | 4 | 1 | 47 |
| 18 | CCc1noc(C)c1C(=O)Oc1ccc(N(C)S(=O)(=O)c2ccc(C)cc2)cc1 | · | · | · | -7 | -18 | 60 |
| 19 | COc1cccc(COC(=O)Cc2ccc(S(=O)(=O)N3CCOCC3)s2)c1OC | · | · | · | -2 | 3 | -18 |
| 20 | O=C(NCCCN1CCCC1=O)c1ccc(NS(=O)(=O)c2ccc(F)cc2)cc1 | · | · | · | -5 | 1 | -1 |

Next part; the last four above are carried over.
| nr | SMILES | Env fusion inh | Rce1 inh | UUG fidelity | MT1-MMP act inh | MT1-MMP act inh RFP | CSC inhib |
| --- | --- | --- | --- | --- | --- | --- | --- |
| 17 | CCC(C)c1ccc(S(=O)(=O)N2CCN(CC(O)CN3CCOCC3)CC2)cc1 (stereo not drawn) | · | · | · | 4 | 1 | 47 |
| 18 | CCc1noc(C)c1C(=O)Oc1ccc(N(C)S(=O)(=O)c2ccc(C)cc2)cc1 | · | · | · | -7 | -18 | 60 |
| 19 | COc1cccc(COC(=O)Cc2ccc(S(=O)(=O)N3CCOCC3)s2)c1OC | · | · | · | -2 | 3 | -18 |
| 20 | O=C(NCCCN1CCCC1=O)c1ccc(NS(=O)(=O)c2ccc(F)cc2)cc1 | · | · | · | -5 | 1 | -1 |
| 21 | O=C(COC(=O)c1ccc(OC(F)F)cc1)NCCC1=CCCCC1 | · | · | · | 3 | 2 | 3 |
| 22 | O=C(c1cnn(C(=O)c2ccco2)c1)c1cc(F)ccc1O | · | · | · | -9 | -3 | 5 |
| 23 | CCc1ccc(-c2nn(Cc3ccccc3)cc2C(=O)NCC2CCCO2)cc1 (stereo not drawn) | · | · | · | 1 | -1 | -2 |
| 24 | O=C(COC(=O)c1ccc([N+](=O)[O-])o1)Nc1ncc(Cl)cc1Cl | · | · | · | -5 | 3 | -11 |
| 25 | CCC(C)N1CCN(C(=O)c2cccs2)CC1 (stereo not drawn) | · | · | · | 1 | 5 | 6 |
| 26 | CC(Oc1ccc(C(C)(C)C)cc1)C(=O)NCC(c1ccco1)N1CCCC1 (stereo not drawn) | · | · | · | -7 | -2 | -3 |
| 27 | CC(Sc1nnnn1C)C(=O)Nc1nc(-c2ccc(F)c(F)c2)cs1 (stereo not drawn) | · | · | · | -1 | -11 | -5 |
| 28 | O=C(NCCc1ccc(F)cc1)c1ccc(Cl)c(S(=O)(=O)N2CCOCC2)c1 | · | · | · | -7 | -23 | 2 |
| 29 | CCN1CCN(c2ccc(S(=O)(=O)N3CCOCC3)cc2NC(=O)C(C)Oc2ccc(F)cc2)CC1 (stereo not drawn) | · | · | · | -4 | -2 | 8 |
| 30 | Cc1cccc(C(=O)OCC(=O)c2ccc3c(c2)NC(=O)CO3)c1 | · | · | · | 6 | -11 | -12 |
| 31 | Cc1ccc(C(=O)c2ccccc2C(=O)OCC(=O)N2C(C)CCCC2C)cc1 (stereo not drawn) | · | · | · | -1 | 2 | -4 |
| 32 | CCN(CC(=O)NCc1ccc(F)cc1)CC(=O)Nc1cc(S(=O)(=O)N(C)C)ccc1C | · | · | · | 4 | -5 | -2 |
| 33 | CC(C)c1ccc(/C=C/C(=O)NCCCN2CCOCC2)cc1 | · | · | · | 2 | 0 | -9 |
| 34 | CC(NC(=O)C1CCN(C(=O)c2cccs2)CC1)c1ccc(S(N)(=O)=O)cc1 (stereo not drawn) | · | · | · | 2 | -1 | -14 |
| 35 | COc1ccc(C(C)(C)C)cc1NC(=O)C1=CC=CN2CCS(=O)(=O)N=C12 | · | · | · | 2 | 0 | -23 |
| 36 | Nc1cc(Cl)ccc1C(=O)OCC(=O)NC1CCCCCCC1 | · | · | · | -2 | 1 | 11 |
| 37 | O=C(CCC(=O)N1CCN(S(=O)(=O)c2ccc([N+](=O)[O-])cc2)CC1)N1CCOCC1 | · | · | · | 1 | 6 | -3 |
| 38 | CN(C(=O)COC(=O)c1cc2ccccc2cc1O)c1c(N)n(Cc2ccccc2)c(=O)[nH]c1=O | · | · | · | -3 | -3 | -16 |
| 39 | Cc1nn(C)c(C)c1NC(=O)CSc1nc(Cc2ccccc2)nc2c1cnn2-c1ccccc1 | · | · | · | -4 | -6 | 8 |
| 40 | CCOC(=O)c1c(NC(=O)CN2C(=O)NC3(CCCCC3C)C2=O)sc(C(=O)N(C)C)c1C (stereo not drawn) | · | · | · | -2 | 1 | -14 |

Seven entries picked at random from those above:
| nr | SMILES | Env fusion inh | Rce1 inh | UUG fidelity | MT1-MMP act inh | MT1-MMP act inh RFP | CSC inhib |
| --- | --- | --- | --- | --- | --- | --- | --- |
| 26 | CC(Oc1ccc(C(C)(C)C)cc1)C(=O)NCC(c1ccco1)N1CCCC1 (stereo not drawn) | · | · | · | -7 | -2 | -3 |
| 32 | CCN(CC(=O)NCc1ccc(F)cc1)CC(=O)Nc1cc(S(=O)(=O)N(C)C)ccc1C | · | · | · | 4 | -5 | -2 |
| 21 | O=C(COC(=O)c1ccc(OC(F)F)cc1)NCCC1=CCCCC1 | · | · | · | 3 | 2 | 3 |
| 39 | Cc1nn(C)c(C)c1NC(=O)CSc1nc(Cc2ccccc2)nc2c1cnn2-c1ccccc1 | · | · | · | -4 | -6 | 8 |
| 27 | CC(Sc1nnnn1C)C(=O)Nc1nc(-c2ccc(F)c(F)c2)cs1 (stereo not drawn) | · | · | · | -1 | -11 | -5 |
| 31 | Cc1ccc(C(=O)c2ccccc2C(=O)OCC(=O)N2C(C)CCCC2C)cc1 (stereo not drawn) | · | · | · | -1 | 2 | -4 |
| 40 | CCOC(=O)c1c(NC(=O)CN2C(=O)NC3(CCCCC3C)C2=O)sc(C(=O)N(C)C)c1C (stereo not drawn) | · | · | · | -2 | 1 | -14 |

Continued.
| nr | SMILES | Env fusion inh | Rce1 inh | UUG fidelity | MT1-MMP act inh | MT1-MMP act inh RFP | CSC inhib |
| --- | --- | --- | --- | --- | --- | --- | --- |
| 41 | O=C(CCc1nc2sc3c(c2c(=O)[nH]1)CCCC3)N1CCN(c2ccccc2)CC1 | · | · | · | -2 | 1 | 0 |
| 42 | COc1ccccc1S(=O)(=O)NCc1ccc(C(=O)N(C)Cc2ccc(F)cc2)cc1 | · | · | · | -5 | -5 | -11 |
| 43 | COc1cn(-c2ccccc2)nc1C(=O)OCC(=O)Nc1ccc(C)c(C)c1 | · | · | · | 2 | -2 | 15 |
| 44 | COC(=O)c1ccccc1S(=O)(=O)N1CCC(C(=O)N2CCC2)CC1 | · | · | · | 1 | 6 | 10 |
| 45 | C[C@@H]1CN([C@@H](C)CO)C(=O)c2cc(NC(=O)c3ccncc3)ccc2O[C@@H](C)CCCCO[C@@H]1CN(C)S(=O)(=O)c1ccc(Cl)cc1 | 5[16.7 µM] | · | -8 | · | · | · |
| 46 | C[C@@H]1CN([C@@H](C)CO)S(=O)(=O)c2ccc(-c3cccc(C(=O)N(C)C)c3)cc2O[C@H]1CN(C)C(=O)Cc1ccccn1 | -16[16.7 µM] | · | -6 | · | · | · |
| 47 | C[C@@H]1CN([C@H](C)CO)C(=O)c2cc(C#CC3CC3)cnc2O[C@@H]1CN(C)Cc1ccncc1 | -24[16.7 µM] | · | -10 | · | · | · |
| 48 | C[C@@H]1CN([C@@H](C)CO)C(=O)Cc2cc(NC(=O)Cc3ccccc3)ccc2O[C@H]1CN(C)CC1CCCCC1 | 9[16.7 µM] | · | 11 | · | · | · |
| 49 | COC(=O)C[C@H]1C[C@@H]2c3cc(N(C)C)ccc3O[C@@H]2[C@@H](CO)O1 | -4[16.7 µM] | · | 13 | · | · | · |
| 50 | COc1ccc(CN(C)C[C@@H]2Oc3ccc(NS(=O)(=O)c4ccc(OC)cc4)cc3C(=O)N([C@@H](C)CO)C[C@@H]2C)cc1 | 0[16.7 µM] | · | 8 | · | · | · |
| 51 | CNC(=O)C[C@H]1CC[C@H]2[C@H](COc3ccc(NC(=O)Nc4cccc(F)c4)cc3C(=O)N2C)O1 | 5[16.7 µM] | · | 5 | · | · | · |
| 52 | C[C@@H]1CN([C@@H](C)CO)C(=O)c2cc(NC(=O)CCN3CCOCC3)ccc2O[C@H]1CN(C)CC1CCCCC1 | 0[16.7 µM] | · | 1 | · | · | · |
| 53 | COCC#Cc1cnc2c(c1)C(=O)N([C@H](C)CO)C[C@H](C)[C@H](CN(C)C(=O)C1CCC1)O2 | -12[16.7 µM] | · | 48 | · | · | · |
| 54 | COc1ccc(CN(C)C[C@H]2OCCCC[C@H](C)Oc3ccc(NC(=O)Nc4ccc(C(F)(F)F)cc4)cc3C(=O)N([C@@H](C)CO)C[C@H]2C)cc1 | 8[16.7 µM] | · | 3 | · | · | · |
| 55 | COc1ccc(NC(=O)N(C)C[C@H]2OCCCC[C@@H](C)Oc3ccc(NC(=O)c4ccncc4)cc3C(=O)N([C@H](C)CO)C[C@H]2C)cc1 | 14[16.7 µM] | · | 7 | · | · | · |
| 56 | O=C(C[C@H]1C[C@@H]2c3cc(NC(=O)C4CCC4)ccc3O[C@@H]2[C@H](CO)O1)NCCN1CCCCC1 | 17[16.7 µM] | · | -7 | · | · | · |
| 57 | C[C@H]1CN([C@@H](C)CO)C(=O)c2cc(C#CC3(O)CCCC3)cnc2O[C@@H]1CN(C)Cc1ccccc1 | 11[16.7 µM] | · | -3 | · | · | · |
| 58 | C[C@@H]1CCCCO[C@@H](CN(C)C(=O)NC2CCCCC2)[C@H](C)CN([C@@H](C)CO)C(=O)c2cc(NS(=O)(=O)c3cn(C)cn3)ccc2O1 | 32[16.7 µM] | · | -2 | · | · | · |
| 59 | COc1ccc(S(=O)(=O)Nc2ccc3c(c2)C(=O)N([C@H](C)CO)C[C@@H](C)[C@@H](CN(C)CC2CCCCC2)OCCCC[C@H](C)O3)cc1 | -13[16.7 µM] | · | 38 | · | · | · |
| 60 | O=C(C[C@H]1CC[C@@H](NC(=O)CCN2CCCCC2)[C@H](CO)O1)NCc1ccc(Cl)c(Cl)c1 | -12[16.7 µM] | · | -6 | · | · | · |
| 61 | C[C@@H]1CN([C@H](C)CO)C(=O)c2cccc(NC(=O)C3CCCCC3)c2O[C@@H]1CN(C)Cc1ccc(C(=O)Nc2ccccc2N)cc1 | -29[16.7 µM] | · | 1 | · | · | · |

Some of the compounds tested, so the mix of outcomes need not match the whole.
